From PubChem BioAssay
GLA inh pH 4.5 = qHTS Assay for Inhibitors of Human alpha-Galactosidase at pH 4.5. AID 1467, 2008. 230,000 tested, under 10 active. activity change, negative = inhibition, % at 105 µM. purified enzyme, 4-MU-alpha-Gal fluorescence, pH 4.5. Alpha-galactosidase A (Homo sapiens), P06280; inconclusive = small, poorly fitted or top-dose-only inhibition, or a rising curve; inactive = flat fitted curve, though single readings scatter; no compound was filed as active;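 note: 0% = full activity with enzyme and -100% = basal without enzyme; dose as in the result columns while the protocol names 77 µM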
Rango dissoc inh = qHTS Assay for Inhibitors of RanGTP induced Rango (Ran-regulated importin-beta cargo) - Importin beta complex dissociation. Snurportin-1 (Homo sapiens) + GTP-binding nuclear protein Ran (Homo sapiens) + Importin …. 340,000 compounds, 0.071% hits. Potency, µM (highest dose often 46.1 µM), for the others: top-dose activity change, negative = inhibition. Biochemical FRET Rango-importin beta, RanGTP-induced dissociation; active means falling FRET ratio curve, often poorly fitted, with flat reads before Ran was added; inconclusive means other falling curves, or compound fluorescence or quenching; inactive means flat or rising ratio curve;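 note: potency is the fitted concentration of half-maximal effect; % of control where 0% means no effect; nearly all actives have a fitted effect of over 45% in size; -100% = wells without RanGTP and RCC1; the record marks most hits as doubtful in a second field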
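Two FRET readings bracket the reaction: one 5 min after compound meets Rango–importin beta, another 45 min after RanGTP-RCC1 (0.6 uM Ran, 0.2 uM RCC1, 2 mM GTP) is added. Only the second defines inhibition.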
miR-21 FLuc = qHTS Assay for Modulators of miRNAs and/orActivators of miR-21. HeLa miR-21 FLuc reporter, luciferase, 48 h. Potency, µM (highest dose often 38.3 µM), for inactives: at the top dose reporter change, positive = more light. 340,000 tested, under 10 active. AID 2288, 2010; active = well fitted rising curve with a large enough effect; inconclusive = small, poorly fitted or top-dose-only effect; inactive = no such curve, though single readings can be large or run the other way;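 note: % of control where 0% means no effect; miR-21 action dims this reporter so a rising signal means less miR-21 action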
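HeLa miR-21-FLuc reporter line, endogenous miR-21; 2000 cells/well in DMEM/10% FBS; compound titration up to ~40uM final, 48 h, 37 degree Celsius; luciferase detection reagent, 15 min lysis, CCD luminescence.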
Rango-impB inh = qHTS Assay for Inhibitors of Rango (Ran-regulated importin-beta cargo) - Importin beta complex formation. 340,000 compounds, 0.031% hits. Importin subunit beta-1 (Homo sapiens), Q14974. Potency, µM (highest dose often 92.2 µM), without a hit: at the top dose inhibition of complex formation. Rango CFP/YFP FRET sensor + importin beta, 45 min; active = rising FRET ratio curve, often small or poorly fitted; inconclusive = mostly compound fluorescence or quenching in the first reads; inactive = flat curves in all reads;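 note: potency is the fitted concentration of half-maximal effect; 0% = DMSO wells and 100% = buffer wells lacking importin beta; nearly all actives have a fitted effect of over 15% in size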
Target sequence (Q14974 whole entry, looked up): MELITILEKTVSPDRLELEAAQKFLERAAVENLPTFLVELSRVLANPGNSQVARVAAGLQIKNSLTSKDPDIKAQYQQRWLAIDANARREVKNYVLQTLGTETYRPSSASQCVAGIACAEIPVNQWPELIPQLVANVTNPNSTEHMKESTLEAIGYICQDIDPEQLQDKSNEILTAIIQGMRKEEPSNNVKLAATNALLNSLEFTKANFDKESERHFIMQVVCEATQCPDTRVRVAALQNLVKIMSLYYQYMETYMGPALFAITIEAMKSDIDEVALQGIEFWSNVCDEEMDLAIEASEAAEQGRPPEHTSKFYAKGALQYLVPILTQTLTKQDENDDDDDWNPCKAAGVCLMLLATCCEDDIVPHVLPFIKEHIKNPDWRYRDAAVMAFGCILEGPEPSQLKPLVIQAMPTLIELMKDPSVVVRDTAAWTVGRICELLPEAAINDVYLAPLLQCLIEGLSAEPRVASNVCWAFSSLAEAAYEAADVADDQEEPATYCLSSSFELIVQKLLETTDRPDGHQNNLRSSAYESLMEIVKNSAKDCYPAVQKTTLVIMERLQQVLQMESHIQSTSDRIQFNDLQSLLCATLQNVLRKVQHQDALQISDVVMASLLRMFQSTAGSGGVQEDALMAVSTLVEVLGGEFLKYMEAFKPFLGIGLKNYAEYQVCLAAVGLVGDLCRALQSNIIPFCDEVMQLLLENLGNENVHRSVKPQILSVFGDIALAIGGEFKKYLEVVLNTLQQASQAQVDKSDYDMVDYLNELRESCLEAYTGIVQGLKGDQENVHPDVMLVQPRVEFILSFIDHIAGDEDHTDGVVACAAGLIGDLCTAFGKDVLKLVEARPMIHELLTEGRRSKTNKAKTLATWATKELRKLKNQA
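FRET biosensor (snurportin 1 IBB flanked by EYFP and cerulean), 50 nM, with compound 5 min, then 0.125 microM importin beta in PBS, 1 mM DTT, 0.02% Tween-20, 0.1% BSA. CFP/YFP ratio read after 45 min at room temperature; pre-read flags interference.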
The depositor's hits bear a star; ? = inconclusive; . = no result given; & = joins results of further samples; [ ] = dose if it differs, or a comment. Only part of the results is shown; rates above refer to the full screens.

SMILES	GLA inh pH 4.5	Rango dissoc inh	miR-21 FLuc	Rango-impB inh
CCN(CC)CCN1C(=O)C(=O)/C(=C(/O)c2ccncc2)C1c1ccccc1 (stereo not drawn)	-5.9	-4.0%	0.2%	-2.4%
Cc1ccc2oc3c(c(=O)c2c1)C(c1cccs1)N(CCCN(C)C)C3=O (stereo not drawn)	-2.9	?	-41.0%	?
CN(Cc1ccccc1)C(=O)c1ccc(NC(=O)Cc2cccc(NC(=O)C3CCN(C(=O)C4CCCC4)CC3)c2)cc1	.	21.1%	.	-1.1%
O=C(Nc1ccccc1Cl)N(Cc1nc2ccccc2c(=O)[nH]1)Cc1cccs1	2.9	8.2%	-10.5%	0.8%
CN(Cc1ccccc1Cl)C(=O)c1cc2ccccc2o1	.	-1.1%	-34.6%	-2.6%
Cc1nnc(NC(=O)c2csc3c2CCC(C)C3)s1 (stereo not drawn)	5.0	0.3%	20.9%	-1.5%
CCOc1ccc(NC(=O)CN(C)C(=O)c2cc(C)oc2C)cc1OCC	.	0.4%	.	7.9%
Cc1ccccc1NC1=C(Cl)C(=O)OC1OC(=O)c1ccco1 (stereo not drawn)	4.7	-13.8%	16.8%	-7.3%
COCCOC(=O)C1=C(C)Nc2ncnn2C1c1ccc(F)cc1 (stereo not drawn)	-6.9	-6.7%	-3.0%	-2.5%
CC1SC(c2ccccc2Cl)NC1=O (stereo not drawn)	-6.1	-2.4%	-0.6%	1.9%
CCOc1ccc(-n2c(SCC(N)=O)nnc2-c2ccco2)cc1	.	-7.3%	0.0%	0.2%
COC(=O)CC(NC(=S)NC(=O)c1ccccc1)c1ccc(Br)cc1 (stereo not drawn)	.	12.5%	-2.6%	-0.7%
Clc1ccccc1CSc1nncn1NC/C=C/c1ccccc1	-10.2	3.1%	-11.3%	2.5%
CCOc1ccc(S(=O)(=O)Nc2cc(S(=O)(=O)N3CCOCC3)ccc2OC)cc1	.	9.5%	.	4.8%
CCOC(=O)C1=C(CSCc2ccccc2)NC(=O)NC1c1cc(C)ccc1C (stereo not drawn)	-11.7	5.8%	23.5%	-0.7%
O=C(N/N=C1/CC2C=CCC12)c1cccs1 (stereo not drawn)	.	-3.9%	-63.6%	0.7%
COc1cc(OC)cc(OC(=O)C2CCN(C(=O)c3ccc(Cl)cc3)CC2)c1	.	19.5%	.	-0.2%
[N-]=[N+]=N[C@@H](CCN1CC[C@H](O)CCC1=O)c1ccccc1	.	20.9%	-2.3%	-0.5%
Cc1ccc(NC(=S)N=Nc2c(O)n(C)c3ccc(S(=O)(=O)N4CCOCC4)cc23)cc1C	-2.9	7.3%	-6.7%	-0.8%
CCN=C1SC(CC(=O)Nc2sc3c(c2C#N)CCCC3)C(=O)N1CC (stereo not drawn)	1.2	-13.4%	1.8%	0.2%
Cc1ccccc1C(=O)N1CCC(C(=O)Nc2ccc(S(=O)(=O)N3CCCCC3)cc2)CC1	.	3.4%	21.4%	0.6%
NC(=O)CSc1nnc(-c2ccc(S(=O)(=O)N3CCOCC3)cc2)n1CC1CCCO1 (stereo not drawn)	-5.5	16.2%	-3.2%	-5.8%
Cc1onc(-c2ccccc2Cl)c1C(=O)NCCN1CCOCC1	4.3	14.0%	-3.8%	1.8%
CCCC(C)c1oc(=O)cc(O)c1C (stereo not drawn)	.	9.4%	.	0.5%
COc1ccccc1N1Cc2ccc(OC)c(OC)c2C1=O	.	-11.1%	-12.0%	-0.5%

The list continues.
SMILES	GLA inh pH 4.5	Rango dissoc inh	miR-21 FLuc	Rango-impB inh
Cc1nn(Cc2ccccc2Cl)c(C)c1C(=O)N(C)CC(=O)Nc1cccc(F)c1	.	-21.7%	.	4.6%
CCOC(=O)c1sc(N2C(=O)C(O)=C(C(=O)c3ccco3)C2c2cccc([N+](=O)[O-])c2)nc1C (stereo not drawn)	.	-5.8%	-18.2%	?
Cc1scc(C(=O)NCc2ccco2)c1-c1ccccc1	-2.3	-13.2%	-4.9%	-1.2%
COCC(C)NC(=O)Cc1ccc(Cl)cc1 (stereo not drawn)	3.2	0.8%	-2.5%	2.1%
Cn1c(SCC(=O)NCc2ccccc2)nc2c([nH]c3ccccc32)c1=O	10.1	.	2.6%	.
OCCC1CN(Cc2cccn2-c2ncccn2)CCN1Cc1ccccc1 (stereo not drawn)	6.7	1.8%	-4.8%	-0.3%
COC(=O)c1ccc(C2C(C(=O)c3ccco3)=C(O)C(=O)N2c2cc(C)on2)cc1 (stereo not drawn)	.	-14.0%	2.7%	2.1%
COc1cc2ccccc2nn1	-3.0	?	-9.3%	?
CCOC(=O)CNC(=O)CSc1nnc(Cn2c(=O)sc3ccccc32)n1-c1ccccc1C	-0.3	0.5%	-6.6%	-0.6%
CCC(C)NC(=O)CN(c1cc(Cl)ccc1OC)S(C)(=O)=O (stereo not drawn)	0.3	32.4%	-1.0%	3.3%
CCOC(=O)c1c(NC(=O)CSc2nc3cc(Cl)ccc3s2)sc(C(C)=O)c1C	-0.7	.	-1.1%	.
CCc1nnc(NC(=O)C2CCCN(c3nc(C)cc(C)n3)C2)s1 (stereo not drawn)	4.5	-5.0%	-10.3%	-2.0%
CCOC(=O)C1=C(C)N=C2SC(C)C(=O)N2C1c1ccc(C(=O)OC)cc1 (stereo not drawn)	-9.4	-14.8%	-7.7%	0.5%
O=C(O)c1cc(=O)c2cc(Cl)ccc2o1	1.6	-6.9%	0.1%	-2.0%
CCOC(=O)c1cccc(NC(=O)CSc2nnc(-c3ccoc3C)n2CCOC)c1	-2.2	7.9%	-0.2%	-3.1%
CC(=O)NC12CC3CC(C1)CC(C(=O)Nc1nc4ccc(S(C)(=O)=O)cc4s1)(C3)C2	.	0.4%	0.0%	4.4%
CCN(CC(=O)Nc1ccccc1C(F)(F)F)C(=O)CCS(=O)(=O)c1ccc(C)cc1	.	-2.5%	.	-0.4%
Cc1ccc(N2C(=O)C3C4CC(=O)C(c5ccccc54)C3C2=O)cc1 (stereo not drawn)	-0.5	5.7%	-1.3%	0.9%
CC1CC(C)CN(c2cc(N(C)CCO)c([N+](=O)[O-])c3nonc23)C1 (stereo not drawn)	-10.5	3.7%	0.6%	-0.2%
COc1cccc(N2CC(C(=O)Nc3ccc(C(=O)OC(C)C)cc3)CC2=O)c1 (stereo not drawn)	-0.6	2.5%	13.5%	1.9%
Cc1nc([N+](=O)[O-])cn1CCC#N	4.4	0.4%	1.2%	-3.8%
COc1ccc(NC(=O)N(CCC(C)C)C(C)c2ccccn2)c(OC)c1 (stereo not drawn)	-1.0	0.4%	-13.0%	-3.7%
CN1CC(=O)NC1=NC(=O)c1cc(F)c(F)cc1Cl	-10.5	-5.6%	0.9%	-0.7%
Cc1ccc(CCSc2ccc(F)cc2)cn1	0.8	-2.5%	-19.2%	-0.9%
COc1ccccc1OCCNC(=O)c1ccc(C)c(S(=O)(=O)N2CCOCC2)c1	.	7.0%	.	0.5%

(list continues)
SMILES	GLA inh pH 4.5	Rango dissoc inh	miR-21 FLuc	Rango-impB inh
COc1cccc(N(CC(=O)N2CCCCCC2)S(C)(=O)=O)c1	.	17.0%	-3.7%	-0.8%
Cc1cc(C)cc(N(C(=O)C(F)(F)F)C(C(=O)NC2CCCCC2)c2cccs2)c1 (stereo not drawn)	-3.2	-7.1%	-1.5%	0.3%
Cc1ccc(N(C(C)C(=O)Nc2ccc(S(=O)(=O)N3CCOCC3)cc2)S(C)(=O)=O)cc1 (stereo not drawn)	5.2	13.7%	-2.1%	-0.3%
COc1cccc(C(=O)NC2CCN(CC(=O)Nc3nccs3)CC2)c1	2.5	6.8%	0.6%	4.7%
Cc1c(C)c(C)c(S(=O)(=O)NCCc2ccccn2)c(C)c1C	.	22.7%	5.0%	-1.0%
CC(Cl)C(=O)Nc1cc(C(C)(C)C)nn1-c1ccccc1 (stereo not drawn)	-10.6	10.1%	0.2%	3.0%
CC(=O)c1ccc(S(=O)(=O)N2CCN(C(=O)c3ccc(COc4ccccc4)o3)CC2)cc1	.	0.6%	.	0.0%
Cc1cc(C)cc(NC(=O)Cn2nnc(C(=O)NCCc3ccccc3)c2N)c1	.	0.4%	-3.2%&-4.7%	1.5%
CCOC(=O)NC(NC(=O)OCC)C(=O)c1ccc(F)cc1	9.8	8.6%	-17.2%	1.1%
O=C(c1ccccc1)c1ccccc1N1C(=O)C=CC1=O	-1.0	27.6%	?	3.7%
Clc1ccc(CNc2ccc(CNc3ncn[nH]3)cc2)c(Cl)c1	-4.1	2.2%	5.6%	5.2%
CC1CCCCC1NC(=O)CSc1ccc([N+](=O)[O-])cc1 (stereo not drawn)	10.1	-0.6%	-0.8%	0.6%
CCN1CCN(CCNC(=O)c2ccc(/C=C3/Sc4ccccc4N(Cc4cccc(Cl)c4)C3=O)cc2)CC1	-3.0[21.1 µM]	?	-6.1%	?
COc1ccc2[nH]c(C)c(C(=O)CN(C)CC3OCCO3)c2c1	10.3	6.1%	1.8%	0.0%
Cc1cc(C)c2[nH]c(=O)c(CN(Cc3ccco3)C(=O)C3CCCO3)cc2c1 (stereo not drawn)	1.5	-3.6%	-5.7%	-1.5%
Nc1nc(CSc2ccccn2)nc(Nc2ccccc2)n1	-5.6	-0.2%	-42.7%	0.6%
CCSc1sccc1C1C(C#N)=C(N)N(c2cccnc2)C2=C1C(=O)CC(C)(C)C2 (stereo not drawn)	1.5	-28.6%	-23.3%	?
CCOc1cc(NS(=O)(=O)c2ccc(OC)cc2)c(OCC)cc1NC(C)=O	7.1	-10.1%	-1.2%	0.3%
COCCNC(=O)CN1C(=O)c2cccc3cccc1c23	.	-16.6%	0.6%	?
CC1CCN(S(=O)(=O)c2ccc(NC(=O)CSc3nnnn3C)cc2)CC1	7.0	-10.2%	-1.6%	-0.6%
CCOc1cc(C2C3=C(CCCC3=O)OC3=C2C(=O)CCC3)cc([N+](=O)[O-])c1O	1.6	16.3%	-5.0%	2.3%
CC(=O)N(CC(=O)Nc1nn(-c2ccccc2)nc1C(N)=O)Cc1ccccc1	0.4	-7.3%	6.5%	-3.3%
O=C(O)C1CCCN1C(=O)Nc1ccc(Cl)cc1 (stereo not drawn)	0.9	-16.2%	-2.3%	-0.9%
Cc1nc2ccccc2c2oc(C(=O)N3CCN(c4ccc([N+](=O)[O-])cc4)CC3)cc12	.	-2.9%	3.6%	-1.1%
CS(=O)(=O)N1CCN(c2ncccn2)CC1	-15.1	0.5%	1.0%	-1.5%

The list continues:
SMILES	GLA inh pH 4.5	Rango dissoc inh	miR-21 FLuc	Rango-impB inh
c1cnc(-c2noc(CN3CCN(C4CCCC4)CC3)n2)cn1	5.5	-8.2%	6.6%	5.4%
O=C(CN(C(=O)CNS(=O)(=O)c1ccccc1)c1ccc(F)cc1)NCc1ccco1	.	-10.9%	-2.7%	?
CC1(O)c2ccccc2C(=O)N1Cc1ccccc1 (stereo not drawn)	3.6	9.9%	-3.9%	2.8%
CC1CCN(C(=O)CSc2ccc(-c3ccc4c(c3)OCCO4)nn2)CC1	.	-1.1%	-22.0%	0.2%
CC(=O)Nc1ccc(S(=O)(=O)Nc2cccc3cccnc23)cc1	.	7.5%	2.9%	?
COCCOC(=O)C1=C(C)NC(=S)NC1c1cccs1 (stereo not drawn)	-0.2	5.2%	3.2%	0.3%
COc1ccc(/C=C2/SC(c3ccc(C)cc3)=NC2=O)cc1OC	1.3	?	-13.6%	?
CCOc1ccc(NC(=S)NCC(c2cccnc2)N2CCOCC2)cc1 (stereo not drawn)	1.8	-3.9%	-0.3%	0.2%
COc1cc(NC(=O)C2=CC(c3ccc(C)cc3)=NS(=O)(=O)N2C)cc(OC)c1OC	.	-19.4%	6.9%	-0.7%
Cc1cc(O)c(C(=O)/C=C/c2ccc(C(C)C)cc2)c(=O)o1	.	?	-41.0%	?
